From PubChem
Calb biofilm kill – clotrimazole potentiators killing C. albicans biofilm, primary screen, 4-compound mixtures; C. albicans biofilm persisters + clotrimazole, fluorescence viability; primary screen in compound mixtures of four per well; 0.02% of 120,000 active; inhibition, % at 7.6 µM;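 active = inhibition above 30.3% in the primary screen of four-compound pools, then above 30% when the compound was retested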;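 note: compounds exposed to preformed 24 h biofilms for 48 h; the number belongs to the whole pool; some results filed as inactive read as strong as hits; inactives centre near 12; 0% = biofilm with clotrimazole alone and 100% = kill control; retested singly at about 60 µM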
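Probe or stimulus – Clotrimazole 50 µg/mL co-treatment · System – C. albicans biofilms · Schedule – 24 h biofilm formation, then 48 h compound exposure, 37 °C · Evaluation – percent inhibition of biofilm viability · Technique – 2-h Alamar Blue fluorescence, 535/590 nm excitation/emission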
Numbers without * were called inactive.

A first look, 4 compounds:
SMILES	Calb biofilm kill
CSC1=N/C(=C\c2ccc(Cl)cc2)C(=O)N1N(C)C	31
CN(Cc1ccccn1)Cc1nc(-c2ccc(Cl)cc2)no1	22
O=C(NCc1cccnc1)c1ccccc1-c1ccccc1	23
Cc1ccc(NC(=O)C(Nc2cccc(C)c2)c2ccccc2)cc1 (centres undefined)	15

The whole of this part (from the top)
SMILES	Calb biofilm kill
CSC1=N/C(=C\c2ccc(Cl)cc2)C(=O)N1N(C)C	31
CN(Cc1ccccn1)Cc1nc(-c2ccc(Cl)cc2)no1	22
O=C(NCc1cccnc1)c1ccccc1-c1ccccc1	23
Cc1ccc(NC(=O)C(Nc2cccc(C)c2)c2ccccc2)cc1 (centres undefined)	15
CCn1c(SCc2cccc(F)c2)nnc1-c1cccnc1	-1
c1ccc(C2CC(c3ccccc3)n3c(nc4ccccc43)N2)cc1 (centres undefined)	13
CCOC(=O)CN(C(=O)CSc1nnc(-c2ccncc2)n1CCCOC)c1ccccc1	15
CCOC(=O)CSc1cc(C)c(C#N)c2nc3ccccc3n12	9
COc1cc(OC)c2c(C)cc(=O)oc2c1C(CCN1CCOCC1)c1ccc(N(C)C)cc1 (centres undefined)	15
c1ccc2sc(C3CCN(Cc4nnnn4Cc4ccc5c(c4)OCO5)CC3)nc2c1	15
COc1cccc(OC)c1-c1nn2c(-c3ccco3)nnc2s1	10
COc1ccc(C(=O)OCC(=O)NC2CC2)cc1[N+](=O)[O-]	10
COc1ccc(-c2c[n+](CC(=O)N3c4ccccc4Sc4ccccc43)c3n2CCC3)cc1	14
N#CNC(=Nc1ccc(F)cc1)SCc1ccccc1	18
CC(C)(C)c1ccc(-c2cn(-c3ccc(Br)cc3)c3[n+]2CCCS3)cc1	31*
CCCOc1ccc(C2=NNC(=O)CC2)cc1	10
CC(=O)c1cc(-c2ccccc2)n(CCC(=O)NC2CCCCCCC2)c1C	12
COc1cc(OC)c(OC)cc1NC(=O)CC1COc2ccccc2O1 (centres undefined)	13
CC(C)CCC(CC(C)O)C(=O)NNC(=S)Nc1ccccc1 (centres undefined)	24
O=[N+]([O-])c1ccc(C2CN=C(Nc3ccccc3)S2)cc1 (centres undefined)	9

3 compounds already listed, ordered by number of heavy atoms, ascending.
SMILES	Calb biofilm kill
CCCOc1ccc(C2=NNC(=O)CC2)cc1	10
O=[N+]([O-])c1ccc(C2CN=C(Nc3ccccc3)S2)cc1 (centres undefined)	9
COc1cccc(OC)c1-c1nn2c(-c3ccco3)nnc2s1	10

Next section.
SMILES	Calb biofilm kill
Cc1ccc(S(C)(=O)=NS(=O)(=O)c2cccc3nsnc23)cc1 (centres undefined)	22
Cc1cc(N=Cc2c(O)n(-c3cccc(C(F)(F)F)c3)c(=O)c3ccccc23)no1	4
C=CCc1cccc(/C=N/NC(=O)CNc2ccccc2OC)c1O	14
Clc1cccc(-c2nc(NCCN3CCOCC3)c3ccccc3n2)c1	13
O=C(c1cc(COc2c(F)cccc2F)on1)N1CCc2ccccc2C1	20
COc1ccc2[nH]c3c4c(ccc3c2c1)C(=O)C=CC4=O	10
CN(C)CCNC(=O)C(=O)NCC1OCCN1S(=O)(=O)c1ccc2c(c1)OCCO2 (centres undefined)	21
CN(C)CCNC(=O)COc1cccc2c1OC(C)(C)C2	12
CCOc1ccc(CC(=O)OCn2nnc3ccccc3c2=O)cc1	14
CN(C)c1nc(OCCNC(=O)Nc2ccc(Cl)cc2)nc(N(C)C)n1	2
CS(=O)(=O)NNC(=O)c1sccc1OCc1ncc(C(F)(F)F)cc1Cl	19
COc1ccc(-c2csc3ncn(-c4ccccc4)c(=O)c23)cc1OC	27
O=C(NC1CCCC1)C(=O)N(Cc1cccnc1)C(C(=O)NCc1ccco1)c1ccccc1F (centres undefined)	24
COc1ccc(Cc2noc(CN(C)CCc3ccccc3)n2)cc1OC	7
CCCN(CC(=O)Nc1cc(C)on1)S(=O)(=O)c1cccc(C(F)(F)F)c1	-7
Cc1ccc(NC(=O)c2ccc(NCc3ccco3)c([N+](=O)[O-])c2)cc1Cl	21
Cc1ccc(-c2nnc(N3CCCCC3)c3ccccc23)cc1	19
Cc1cc(=O)[nH]c(N/N=C/C2=C(N3CCOCC3)C(=C\c3ccc(Cl)cc3)/CC2)n1	18
O=C(OC(c1ccccc1)c1nccc2ccccc12)c1cccc([N+](=O)[O-])c1 (centres undefined)	14
C=CCN=Cc1c(C)[nH]n(-c2ccccc2)c1=O	8
COCCNC(=S)N(Cc1cccs1)Cc1cc2cccc(C)c2[nH]c1=O	28
CC[C@H](C)[C@@H](C(=O)N1CCNCC1)n1cc([C@@H](N)Cc2ccc(O)cc2)nn1	7
CC(C)N(Cc1ccccc1)C(=O)c1ccc2nsnc2c1	17
CC[C@H](C)C(=O)O[C@H]1C[C@@H](C)C=C2C=C[C@H](C)[C@H](CC[C@@H]3C[C@@H](O)CC(=O)O3)[C@H]21	11
CNc1nc(SC)nc(N(C)C#N)n1	11
O=C(CSc1nnc(-c2ccncc2)n1CC1CCCO1)Nc1nccs1 (centres undefined)	-6
CCNc1nc(NCc2ccccc2)nc(SCC(=O)Nc2ccccc2)n1	16
CCNc1ccc(C(=O)OCC(=O)NC(=O)NCC(C)C)cc1[N+](=O)[O-]	3
Cc1ccc(C(=O)c2ccccc2C(=O)O)cc1C	15
COc1ccc(NS(=O)(=O)c2cc(NC(=O)/C=C/c3cc(OC)c(OC)c(OC)c3)ccc2N2CCCCC2)cc1	13
N=C1C(=O)OCC1c1cc(Cl)ccc1NC(=O)Nc1ccccc1 (centres undefined)	18
O=C(COC(=O)CNC(=O)c1ccc(Cl)cc1Cl)Nc1ccc(N2CCOCC2)cc1	7
Cc1cccc2cc(-c3ccccc3)c(-c3ccccc3)c[n+]12	16
O=C(N/N=C/c1ccc(Cl)cc1Cl)C(=O)NC1CC1	10
Cc1ccc(-n2nnnc2SC(C)C(=O)NCC(=O)Nc2ccc(F)c(F)c2F)c(C)c1 (centres undefined)	11
CCN(CC)C(=O)c1sc(NC(=O)C(C)C)c(C#N)c1C	19
CC(C)c1ccc2[nH]c3c(c2c1)CCC/C3=N\NC(=O)c1ccncc1	3
COc1ccc(C2=C(SC)CC2=NC(C)(C)C)cc1	-2
CC1CN(C(=O)c2ccc(N3CCCCC3)c([N+](=O)[O-])c2)CC(C)O1 (centres undefined)	17
CCc1cccc(CC)c1NC(=S)NC(C)c1ccccc1 (centres undefined)	4
O=C1CC2C(=O)NCCN2C(=NC(=O)c2ccc(Cl)cc2)N1 (centres undefined)	5
O=C(CCSCc1cccc(Cl)c1)NCCC1=CCCCC1	11
COc1ccc(S(=O)(=O)N(C)c2ccc(C(=O)N3CCCCC3)cc2)cc1OC	26
CCOC(=O)c1c(/N=C/C2=C(O)CC(C)(C)CC2=O)sc(C)c1C	4
Oc1c(Cl)cc(Cl)c(Cl)c1Cc1c(O)c(Cl)cc(Cl)c1Cl	27
C#CCOCCOCCOCCNc1nc(N2CCN(C(=O)Cn3cc(CCCCN)nn3)CC2)nc(N2CCN(C(=O)Cn3cc(CCCCN)nn3)CC2)n1	9
COC(=O)c1ccc(C2c3c(oc4ccc(Cl)cc4c3=O)C(=O)N2CCN2CCOCC2)cc1 (centres undefined)	28
COc1ccc(NC(=O)c2ccc(S(=O)(=O)N3CCCCCC3)cc2)c(OC)c1	18
O=C(Nc1cccc2ccccc12)c1cc2c(cc1Br)OCO2	16
CCc1ccc(NC(=O)CCCN2C(=S)NC(C)(C)CC2C)cc1 (centres undefined)	-4
New compounds follow.
SMILES	Calb biofilm kill
NC(=O)C1=C[C@H](c2ccccc2)C[C@H](OCc2ccc(CO)cc2)O1	19
NS(=O)(=O)c1ccc(Cl)cc1[N+](=O)[O-]	10
Cc1ccccc1NCC(=O)N/N=C\c1ccc2c(c1)OCO2	16
Cc1ccc(-n2nnnc2SCC(=O)Nc2ncc(Cc3ccccc3Cl)s2)cc1	-8
COc1ccc(NS(=O)(=O)c2ccc(N3CCOCC3)c(NC(=O)c3ccc(F)cc3)c2)cc1	7
CC(C)(C)NC(=O)COC(=O)c1ccccc1Oc1ccccc1	13
Brc1ccccc1/C=N/Nc1ccc2ccccc2n1	20
COc1cccc(C(=O)N/N=C/c2ccc(Oc3ccc([N+](=O)[O-])cn3)c(OC)c2)c1	8
Cc1cccc(/C=N/NC(=O)c2cc(-c3cccnc3)nc3c2c(C)nn3-c2ccccc2)c1	-4
CCOC(=O)c1c(N)sc(N)c1C(=O)OCC	13
CCCCSc1nnc(-c2ccc(NC(=O)CCc3ccccc3)cc2)n1C	6
CNC(=S)N1N=C(c2ccccc2)CC1c1ccc(OC)c(OC)c1 (centres undefined)	18
CCOC(=O)N1CCN(c2ncc(C(F)(F)F)cc2Cl)CC1	37
Nc1ccc2c(c1Cl)C(=O)c1ccc(N)c(Cl)c1C2=O	23
Cc1ccc(CSc2nnc(CCNC(=O)OC(C)(C)C)o2)cc1	22
COc1ccc(C2OCC3(CO2)SC(=O)NC3=O)cc1OC (centres undefined)	14
N=c1n(CCN2CCCCC2)c2ccccc2n1CC(=O)c1cccs1	12
Cn1c(CNC(=O)c2ccco2)nnc1SCC(=O)Nc1ccc(Br)cc1F	12
Cc1cc(/C=C(\C#N)c2nc3ccccc3[nH]2)c(C)n1C	15
COc1ccccc1C(=O)n1nc(-c2ccco2)nc1SC	10
COc1ccc(/C=N/NC(=O)OC(C)(C)C)cc1OC	16
Cn1c(=O)n(C)c2cc(/C=C3/SC(=O)N(CC(=O)N4CCOCC4)C3=O)ccc21	11
CN(C)CCNC(=O)c1cc(Sc2ccc(F)cc2)nc2ccccc12	21
O=C(c1cc(=O)c2ccccc2o1)N1CCN(c2cccc(Cl)c2)CC1	15
CCCCCN1C(=O)Cn2c(nc3ccccc3c2=O)C1C (centres undefined)	16
CCc1n[n+](CC(=O)c2ccccc2)c(N)s1	8
CC(C)Cc1nc2sc3c(=O)[nH]cnc3c2c2c1CCCC2	10
O=C(Nc1nonc1NC(=O)c1cccs1)c1cccs1	7
COc1ccc(CC(=O)c2ccc(OC)c(OC)c2C)cc1OC	13
CCCCOc1ccc(C(O)(CC)CCN2CCOCC2)cc1 (centres undefined)	15
CNC(=S)N/N=C/c1ccc(OCC(=O)Nc2c(C)cc(C)cc2C)c(OC)c1	9
COCCNC(=S)N/N=C/c1ccc2c(c1)OCCO2	5
Cc1ccc(C)c(N2CCN(C(=O)CSc3ccsc3[N+](=O)[O-])CC2)c1	16
S=c1[nH]nc(-c2cccs2)n1/N=C/c1cn(-c2ccccc2)nc1-c1cccs1	11
CN(CC(=O)Nc1ccc(F)c(F)c1F)C(=O)/C=C/c1ccc(Cl)cc1	15
Clc1nnc(N2CCCCC2)c2ccccc12	2
C/C(CC(C)(C)c1ccccc1)=N\NS(=O)(=O)c1ccccc1	14
N#C/C(C(=O)N1CCCC1)=C1/N=C(N)c2ccccc21	11
O=C(CCn1cnnn1)Nc1ccccc1F	15
COC(=O)c1sccc1NC(=S)NCc1ccc(Cl)cc1	19

Another view of some results above:
smiles | Calb biofilm kill
CC(C)CCC(CC(C)O)C(=O)NNC(=S)Nc1ccccc1 (centres undefined) | 24
O=[N+]([O-])c1ccc(C2CN=C(Nc3ccccc3)S2)cc1 (centres undefined) | 9
Cc1ccc(S(C)(=O)=NS(=O)(=O)c2cccc3nsnc23)cc1 (centres undefined) | 22
Cc1cc(N=Cc2c(O)n(-c3cccc(C(F)(F)F)c3)c(=O)c3ccccc23)no1 | 4

The main list resumes, starting 2 compounds before the break.
SMILES	Calb biofilm kill
O=C(CCn1cnnn1)Nc1ccccc1F	15
COC(=O)c1sccc1NC(=S)NCc1ccc(Cl)cc1	19
COC(=O)c1ccc(CNC(=O)COC(=O)C2CCC(C(C)(C)C)CC2)cc1 (centres undefined)	11
CC(C)Cn1c(N)c(C(=O)COC(=O)c2ccccc2F)c(=O)n(C)c1=O	22
Cc1ccc(C#CC[N+]2(CC#Cc3ccc(C)cc3)CCCCC2)cc1	22
COC(=O)[C@H](C)[C@H]1C[C@]1(C)[C@H](NC(=O)OCc1ccccc1)c1ccccc1	9
CCOC(=O)Cc1csc(NS(=O)(=O)c2ccc(SC)cc2)n1	14
Cc1ccc(S(=O)(=O)NNC(=O)c2ccc(O)cc2)cc1	6
CCn1nc(C(=O)OCC(=O)c2ccc(F)cc2)c2ccccc2c1=O	16
FC(F)(F)c1cccc(Cc2noc(CN3CCC(N4CCCCC4)CC3)n2)c1	22
Clc1ccc2c(N/N=C/c3ccccc3Br)ccnc2c1	17
CCOC(=O)c1c2c3c(cccc3[nH]c1=O)C(=O)c1ccccc1-2	10
Cn1c(N)c(C(=O)N/N=C/c2ccccc2)sc1=S	12
Cc1ccc(S(=O)(=O)C2(S(=O)(=O)c3ccc(C)cc3)CC2)cc1	24
O=[N+]([O-])c1ccc(O)c(C=Nc2cccc3ncccc23)c1	11
COc1ccccc1Oc1ccccc1[N+](=O)[O-]	5
COc1ccc(-c2nn(CCC#N)cc2C=C(C#N)C#N)cc1	2
C/C=C/C=C/C(=O)Nc1nccs1	4
Cc1ccc(SCc2noc(-c3c(C)noc3C)n2)cc1	14
N/C(=N\OC(=O)CCC1CCCC1)c1ccncc1	7
Cc1nc(Cl)nc(N(C)c2ccccc2)c1[N+](=O)[O-]	15
Cc1nnc(NC(=O)c2csc3c2CCCC3)s1	7
O=C(NN1C(=O)C2C3C=CC(C3)C2C1=O)c1ccco1 (centres undefined)	17
Cc1ccc(C(c2c(C)[nH][nH]c2=O)c2c(C)[nH][nH]c2=O)cc1[N+](=O)[O-]	8
Cn1c(N)c(C(=O)COC(=O)[C@@H]2CCCN2S(=O)(=O)c2ccc(Cl)cc2)c(=O)n(C)c1=O	12
NS(=O)(=O)c1ccc(CCNS(=O)(=O)c2cccc(C(=O)O)c2)cc1	12

Some of the compounds tested; count on the stated rates, not on these rows.
